TDP1 cell CPT = qHTS for Inhibitors of human tyrosyl-DNA phosphodiesterase 1 (TDP1): qHTS in cells in presence of CPT | actives 12% (n = 420,000) | chicken DT40 Tdp1-/-;hTDP1 cells + 20 nM CPT, ATP luminescence, 48 h | AID 686979, 2013 | Potency, µM (series often up to 46.2 µM), inactives show at the highest dose activity change, negative = growth inhibition, hits mostly inhibitors; further: nearly all actives have a fitted effect of over 55% in size
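Chicken DT40 Tdp1-/- cells complemented with human TDP1, 400 cells/well, exposed to compounds plus 20 nM camptothecin for at least 48 h at 37 C; viability read as ATP content by CellTiter-Glo luminescence.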
GCN5L2 inh = qHTS Assay for Inhibitors of GCN5L2; Histone acetyltransferase KAT2A (Homo sapiens), Q92830; GCN5L2 HAT assay, ThioGlo1 CoA-SH fluorescence; Potency, µM (series often up to 58.9 µM), inactives show at the highest dose activity change, negative = inhibition, hits mostly inhibitors; actives 0.21% (n = 390,000); AID 504327, 2011
Target sequence (Q92830 whole entry, looked up): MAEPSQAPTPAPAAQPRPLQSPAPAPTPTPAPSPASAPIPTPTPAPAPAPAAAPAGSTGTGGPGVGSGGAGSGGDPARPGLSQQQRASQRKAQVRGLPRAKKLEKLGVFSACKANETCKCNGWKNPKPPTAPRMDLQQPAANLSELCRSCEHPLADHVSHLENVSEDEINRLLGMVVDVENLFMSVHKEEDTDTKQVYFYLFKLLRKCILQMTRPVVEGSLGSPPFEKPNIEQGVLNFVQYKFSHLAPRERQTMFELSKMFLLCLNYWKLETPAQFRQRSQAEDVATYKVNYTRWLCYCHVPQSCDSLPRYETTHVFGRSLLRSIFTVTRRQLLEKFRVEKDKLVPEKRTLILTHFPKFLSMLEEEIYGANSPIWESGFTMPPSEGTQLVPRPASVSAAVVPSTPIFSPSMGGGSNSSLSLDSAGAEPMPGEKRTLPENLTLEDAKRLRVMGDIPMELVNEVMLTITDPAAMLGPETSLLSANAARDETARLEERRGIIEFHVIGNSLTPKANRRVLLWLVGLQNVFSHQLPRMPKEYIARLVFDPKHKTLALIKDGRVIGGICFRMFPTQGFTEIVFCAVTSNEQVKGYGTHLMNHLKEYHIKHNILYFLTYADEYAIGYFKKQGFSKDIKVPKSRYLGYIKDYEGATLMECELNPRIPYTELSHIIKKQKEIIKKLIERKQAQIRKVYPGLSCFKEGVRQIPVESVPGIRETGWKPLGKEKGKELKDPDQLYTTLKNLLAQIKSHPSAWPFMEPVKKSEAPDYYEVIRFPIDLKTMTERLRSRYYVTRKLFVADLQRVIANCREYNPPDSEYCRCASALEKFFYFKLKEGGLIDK
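GCN5L2 (20 nM) in 50mM HEPES pH 7.5, 0.1mM EDTA, 0.01% Tween-20 preincubated 15 min with compounds at room temperature. Reaction started with H3(1-25) 75uM, acetyl-CoA 70uM, ThioGlo1 50uM; CoA-thiol fluorescence (Ex340/Em540) read at 0 and 20 min.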
Active calls of the source: *; u = inconclusive; x = not tested or not shown; & = joins results of further samples; [ ] = remark or other dose. The call rests on the fitted dose curve; in most records, active means well fitted curve in the direction sought with a large enough effect; inconclusive means small, poorly fitted or top-dose-only effect, or another doubt; inactive means no such curve, though single readings can be large; an effect the other way counts as inactive or inconclusive. On the % scale 0 is the no-effect control and ±100 the full control effect; potency means the concentration at half of the fitted maximal effect. A portion of the library, and most or all hits are left out here.

item | Compound | TDP1 cell CPT | GCN5L2 inh
1 | O=S(=O)(c1ccccc1C(F)(F)F)N1CCN(c2ncnc3sccc23)CC1 | 15µM* | -5%
2 | Cc1sc2ccccc2c1CC1=NCCN1 | -12% | -4%&-1%&-6%
3 | CCOC(=O)C1CCN(C=C2C(=O)N(C)C(=S)N(C)C2=O)CC1 | -6% | 0%
4 | O=C(CC1CCCCC1)N1CCC(c2nc(-c3ccc(S(=O)(=O)N4CCCC4)cc3)no2)CC1 | 21µM* | -2%
5 | NC1=NC(c2cccnc2)n2c(nc3ccccc32)N1 (configuration not stated) | 7% | 0%
6 | Cc1cccn2c(=O)c3cc(C(=O)N4CCC5(CC4)OCCO5)n(C)c3nc12 | 1.2µM* | 3%
7 | Cn1c(O)c(C=NCc2cccs2)c(=O)n(C)c1=O | u | 2%
8 | CCOC(=O)c1ccc2[nH]c(-c3ccc(S(=O)(=O)F)cc3)cc(=O)c2c1 | -27% | -7%
9 | CC(C)CN1CCN(Cc2ccccc2C(F)(F)F)CC1CCO (configuration not stated) | -12% | -7%
10 | CC(Cc1ccccc1)NCc1ccccc1O (configuration not stated) | -1% | -9%
11 | COc1ccc(C(CNC(=O)CCc2ccsc2)N(C)C)cc1 (configuration not stated) | 8% | -6%
12 | CCC(C)n1c(O)c(C=NCCN2CCOCC2)c(=O)[nH]c1=S (configuration not stated) | 28% | -2%
13 | Cc1ccccc1-n1c(O)c(C=NCCN2CCOCC2)c(=O)[nH]c1=O | 8% | -5%
14 | CCC(C)n1c(O)c(C=NCC2CCCO2)c(=O)[nH]c1=S (configuration not stated) | 6% | -4%
15 | O=C1C2CCCC1C(N1CCCCC1)CC2 (configuration not stated) | 15% | -1%
16 | O=C(COC(=O)Cc1ccccc1)Nc1ccc(Cl)cn1 | -7% | 1%
17 | Cc1cc(NC(=O)COC(=O)c2c(C)nn(Cc3ccccc3Cl)c2C)no1 | 1% | 1%
18 | CNC(=O)Oc1ccc2ncccc2c1 | u | 2%
19 | O=C(O)c1ccc(NC(=O)N2C[C@H]3C[C@@H](C2)c2cccc(=O)n2C3)cc1 | 14%[9.04 µM] | 11%
20 | Cc1ccc(-n2c(O)c(C=NCCN3CCOCC3)c(=O)[nH]c2=O)cc1 | 3% | -6%
21 | COc1ccc(-c2[nH]ncc2CNC(C)Cc2ccsc2)c(F)c1 (configuration not stated) | u | -1%
22 | COc1nc2ccccc2c(=O)n1-c1ccc(Cl)cc1 | u | -2%
23 | CN(C)CC1CSCCC1(O)c1cccc(Cl)c1 (configuration not stated) | -3% | -1%
24 | CC(C)C(=O)Nc1nnc(CCN(CCc2nnc(NC(=O)C(C)C)s2)[N+](=O)[O-])s1 | -20% | -6%
25 | CCc1ccccc1NC(=O)CNCc1ccccc1 | 13% | 2%
26 | Cn1cc(C(=O)N2CCC3(CC2)OCCO3)c2c3ccccc3n(C)c2c1=O | -13% | -10%
27 | N#CC(C(=O)C12CC3CC(CC(C3)C1)C2)c1nc2ccccc2[nH]1 (configuration not stated) | u | -2%
28 | COc1cc2c(cc1C=O)OCO2 | 2% | -9%
29 | CN(C)Cc1c[nH]c2ccc([N+](=O)[O-])cc12 | 7% | x
30 | O=C(COc1ccc(Br)cc1)N1CCN(Cc2ccc3c(c2)OCO3)CC1 | u | u
31 | O=c1[nH]c(O)c(N=Nc2ccc([N+](=O)[O-])cc2)c(=O)[nH]1 | u | -7%
32 | Cc1ccc(-c2ccc(=O)n(CC(=O)N3CCC4(CC3)OCCO4)n2)cc1 | 1% | -2%
33 | c1ccc(Cn2ccnc2)cc1 | 7% | -4%
34 | CC(=NCCN(C)C)c1c(O)n(Cc2ccccc2)c(=O)[nH]c1=O | -1% | -30%
35 | NC(=O)Nc1ccc(C(=O)OCC(=O)Nc2ccc(Cl)cc2C(=O)c2ccccc2)cc1 | -2% | 2%
36 | OC(CN1CCC(c2c[nH]c3ccccc23)CC1)C(F)(F)F (configuration not stated) | -13% | -2%
37 | CCCC1=C(C(=O)OCC)C2(C(=O)Nc3ccc(C)cc32)C(C#N)=C(N)O1 (configuration not stated) | -14% | -3%
38 | O=C(N/N=C/c1c(O)n(C2CC2)c(=S)[nH]c1=O)c1ccccc1Cl | 13% | -16%
39 | COc1cc(OC)c(OC)cc1CNC(C)C(O)c1ccccc1 (configuration not stated) | -15% | -7%
40 | Cc1ccccc1CN1CCc2nc(N3CCN(c4ccccn4)CC3)ncc2C1 | u | 21%
41 | O=C(COc1ccc2ccccc2c1)N1CCN(CC2CC3C=CC2C3)CC1 (configuration not stated) | 18µM* | -11%
42 | O=C1OC(c2ccc(Cl)cc2)=N/C1=C\N1CC2CC(C1)c1cccc(=O)n1C2 (configuration not stated) | u | -3%
43 | CCC(C)C12CN3CCN(CC(C)(C3)C1=O)C2 (configuration not stated) | 4% | 1%[0.501 µM]
44 | CC(=O)O[C@H]1CCC2C3CCC4=CC(=O)CCC4=C3C=C[C@@]21C (some centres not stated) | u | -16%
45 | O=[N+]([O-])c1ccc(N2CCOCC2)c2ccncc12 | -28% | -6%
46 | CN1C(=O)C(C2(C#N)CCCCC2)C(=O)N(C)C1=O | -5% | 1%
47 | Cn1c(O)c(C=NCCCN2CCCC2=O)c(=O)n(C)c1=O | -16% | -5%
48 | Cc1ccccc1-n1c(/C=C/c2ccccn2)nc2ccccc2c1=O | 18µM* | 1%
49 | CCOC(=O)[C@]1(C#N)[C@@H]2C=CC(C(C)=O)=CN2[C@@H](C(N)=O)[C@@H]1c1ccsc1 | u | -9%
50 | Cc1ccc(NC(=O)c2cn(CCC#N)nc2-c2ccc3c(c2)OCCO3)c([N+](=O)[O-])c1 | u | -1%
51 | COc1ccc(OC)c(N2Cc3ccccc3C2=N)c1 | u | 21%
52 | O=C(NCC(c1cccnc1)N1CCN(c2ccc(F)cc2)CC1)Oc1ccccc1 (configuration not stated) | u | -1%
53 | N[C@@H](Cc1c[nH]c2ccccc12)c1nnc(SCc2c(F)cccc2Cl)o1 | -13% | -17%
54 | O=C1Nc2cc(C(=O)N3CCC4(CC3)OCCO4)ccc2S/C1=C\c1ccccc1 | u | -7%
55 | Cc1[nH]c2ccccc2c1/C=N/O | 2% | -1%
56 | CCCCc1ncc(CN2CCCC(C(=O)c3ccc(SC)cc3)C2)[nH]1 (configuration not stated) | u | -1%
57 | COc1cccc(C2=CC(c3cc(Br)ccc3F)n3nnnc3N2)c1 (configuration not stated) | 1.3µM* | 0%
58 | Cc1ccc(C2=NN(CCC(=O)N3CCC4(CC3)OCCO4)C(=O)CC2)cc1 | 8% | 3%
59 | CCOC(=O)c1c(C)n(Cc2ccccc2)c2ccc(OCC(O)CNC(C)(C)C)cc12 (configuration not stated) | u | 27%
60 | C[C@]12CCC3C(CC[C@H]4C[C@H](OC(=O)c5cccnc5)CC[C@]34C)C1CCC2=O (some centres not stated) | u | -5%

Structural class, the compounds so far containing an aryl methoxy group
item | Compound | TDP1 cell CPT | GCN5L2 inh
11 | COc1ccc(C(CNC(=O)CCc2ccsc2)N(C)C)cc1 (configuration not stated) | 8% | -6%
21 | COc1ccc(-c2[nH]ncc2CNC(C)Cc2ccsc2)c(F)c1 (configuration not stated) | u | -1%
22 | COc1nc2ccccc2c(=O)n1-c1ccc(Cl)cc1 | u | -2%
28 | COc1cc2c(cc1C=O)OCO2 | 2% | -9%
39 | COc1cc(OC)c(OC)cc1CNC(C)C(O)c1ccccc1 (configuration not stated) | -15% | -7%
51 | COc1ccc(OC)c(N2Cc3ccccc3C2=N)c1 | u | 21%
57 | COc1cccc(C2=CC(c3cc(Br)ccc3F)n3nnnc3N2)c1 (configuration not stated) | 1.3µM* | 0%

Remaining list, next part
item | Compound | TDP1 cell CPT | GCN5L2 inh
61 | CC(C)Cc1nnc(NC(=O)CCC(=O)N2CCC3(CC2)OCCO3)s1 | 16% | 4%
62 | COc1ccc2ccc(O)c(CN3CC=C(c4ccccc4)CC3)c2c1 | u | 3%
63 | CC[C@]12C=CCN3CCC4(c5cc(Br)c(OC)cc5N(C)C4[C@@](O)(C(=O)OC)[C@@H]1OC(C)=O)C32 (some centres not stated) | u | -17%
64 | CCCCn1c(C)c(C(=O)OCC)c2c(CN3CCCC3)c(O)ccc21 | 18µM* | 28%
65 | CCCn1ncc(CN2CCCC(C(=O)c3cccc(OC)c3)C2)c1C (configuration not stated) | u | -2%
66 | Cc1noc(C)c1CSCC(=O)Nc1ccc(C#N)c(Cl)c1 | u | -3%
67 | O=C(NCCN1CCCCC1)c1ccc(Cl)nc1Cl | -5% | -3%
68 | CN(C)CCN=Cc1c(O)n(Cc2ccc3c(c2)OCO3)c(=S)[nH]c1=O | 2% | 0%
69 | CCOc1cc2c(cc1OCC)-n1cccc1C(c1ccccc1F)NC2 (configuration not stated) | u | -22%
70 | CC(C)CCNC(=O)Cn1c(=O)oc2cc(S(=O)(=O)N3CCc4ccccc43)ccc21 | u | -2%
71 | Cn1c(=O)c2c(nc(N/N=C/c3c(O)n(C4CCCCC4)c(=S)[nH]c3=O)n2C)n(C)c1=O | u | -3%
72 | COCCCNC(=O)c1c(NC(=O)c2ccccc2Cl)n(Cc2ccccc2)c2nc3ccccc3nc12 | -5% | -28%
73 | COc1ccc(CCn2c(O)c(/C=N/N3CCCCC3)c(=O)[nH]c2=O)cc1OC | -8% | -3%
74 | NCCc1ccc(OCc2ccccc2)c(OCc2ccccc2)c1 | 16µM* | -1%
75 | C=CCn1c(O)c(C(CC)=Nc2cccc(C(F)(F)F)c2)c(=O)[nH]c1=O | 17% | 0%

Rewritten with two lines to a compound: part of the list above
Value order: TDP1 cell CPT, GCN5L2 inh
(64) CCCCn1c(C)c(C(=O)OCC)c2c(CN3CCCC3)c(O)ccc21
  18µM*, 28%
(65) CCCn1ncc(CN2CCCC(C(=O)c3cccc(OC)c3)C2)c1C (configuration not stated)
  u, -2%
(66) Cc1noc(C)c1CSCC(=O)Nc1ccc(C#N)c(Cl)c1
  u, -3%
(67) O=C(NCCN1CCCCC1)c1ccc(Cl)nc1Cl
  -5%, -3%
(68) CN(C)CCN=Cc1c(O)n(Cc2ccc3c(c2)OCO3)c(=S)[nH]c1=O
  2%, 0%

High-throughput results deposited in PubChem BioAssay by National Center for Advancing Translational Sciences (NCATS).
